# Calb FLC: affects C. albicans growth with fluconazole; growth inhibition, % (test concentration not listed); 300,000 compounds, 0.57% hits; C. albicans CaCi-2 (fluconazole-resistant clinical isolate) + fluconazole, Alamar Blue growth, 48 h; AID 1979;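 active = most replicates above 75%; inconclusive = exactly half above 75%; inactive = most below 75%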;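 note: all wells also contain fluconazole at 8 µg/ml as a sub-toxic cotreatment; 0% = median of DMSO wells and 100% = median of geldanamycin control wells; wells of about 8 µL received 7.5 nL stock; the first replicate is given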
# T cruzi repl: T. cruzi replication inhibition; 300,000 compounds, 1.4% hits; T. cruzi beta-gal in NIH3T3, luminescence, 90 h; inhibition, % (test concentration not listed); AID 1885;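 active = mean inhibition across valid replicates above about 55%, limit read from the data; inconclusive = mean below that limit but half or more replicates reach it; inactive = mean below it, under half of replicates reach it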;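 note: signal also drops with host cell toxicity which is not excluded here; 0% = plate median of DMSO wells and 100% = zero luminescence signal; higher percent means less beta-gal luminescence so fewer parasites; stock transfer was 50 nL into about 50 µL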
# LANA-H2A inh: blocks KSHV LANA binding to histone H2A/H2B | cell-free LANA-H2A/H2B peptide, fluorescence polarization | Q9QR71 | 320,000 compounds, 0.6% hits | inhibition, % (test concentration not listed) | AID 2629; in the data active = inhibition mostly above about 10%, no sharp cut-off; inactive = mostly below about 6.7%;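 note: stock transfer was 7.5 nL into about 10 µL; 0% = median of vehicle wells and 100% = median of positive control wells; one replicate is shown; the record names a cut of 25% in any replicate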
# Beta2AR agonist: agonists of human beta-2 adrenergic receptor inducing internalization; P07550; Am2.2-beta2AR cells, FAP receptor internalization, flow cytometry; reference of the scale not given here; response, % (test concentration not listed); 340,000 compounds, 0.43% hits;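 active = response above a set limit, near 3 SD of response in nonfluorescent compounds, cut at about 42% in these data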;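 note: stock transfer was 100 nL into about 11 µL; a reference agonist was the positive control; negative values mostly stem from fluorescent compounds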
# Target sequence (P07550 whole entry, looked up): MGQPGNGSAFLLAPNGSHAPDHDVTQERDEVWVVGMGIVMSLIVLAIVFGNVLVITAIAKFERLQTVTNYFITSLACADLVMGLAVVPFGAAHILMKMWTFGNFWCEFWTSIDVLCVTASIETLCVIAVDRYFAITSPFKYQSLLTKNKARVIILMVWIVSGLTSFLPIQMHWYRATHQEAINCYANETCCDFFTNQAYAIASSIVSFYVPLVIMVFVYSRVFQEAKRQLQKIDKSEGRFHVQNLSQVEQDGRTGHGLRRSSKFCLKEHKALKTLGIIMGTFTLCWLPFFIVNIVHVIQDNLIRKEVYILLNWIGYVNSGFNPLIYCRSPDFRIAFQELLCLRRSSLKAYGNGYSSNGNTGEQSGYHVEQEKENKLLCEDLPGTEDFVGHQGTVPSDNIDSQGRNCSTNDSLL
# rRNA inh HTS: inhibitors of bacterial rRNA selective over humanized ribosomes. E. coli WT GFP vs humanized-ribosome RFP mutants, fluorescence, 24 h; active compounds read low; DMSO median 0, no signal -100. GFP signal change (wild-type ribosome), % (no concentration beside the values). 350,000 compounds, 1.6% hits;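 active = significant combined selectivity score with lowered wild-type GFP, culture density cut under 30%, mutant RFP and density less affected; inactive = any of these conditions unmet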; note: one replicate is shown; some compounds called inactive have numbers as strong as hits
# ALR H2O2 inh: human ALR oxidase inhibition via reduced H2O2 | 290,000 compounds, 3.8% hits | AID 485317 | inhibition, % (no concentration beside the values) | purified ALR, DTT oxidation, H2O2 HRP-luminol luminescence;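 active = mean and each replicate at 75% or more; inconclusive = only one of the two met; inactive = neither met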;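 note: stock transfer was 7.5 nL into about 7.5 µL; 0% = neutral wells and 100% = wells with inactivated enzyme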
# Target sequence (P55789 whole entry, looked up): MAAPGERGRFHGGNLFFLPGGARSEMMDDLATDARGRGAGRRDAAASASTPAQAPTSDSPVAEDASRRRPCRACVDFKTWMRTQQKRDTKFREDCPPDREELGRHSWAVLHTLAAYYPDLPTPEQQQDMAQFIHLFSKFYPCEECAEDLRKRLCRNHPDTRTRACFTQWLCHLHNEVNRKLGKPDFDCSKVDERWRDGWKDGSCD
# Beta cell apopt: beta cell apoptosis inhibition. 300,000 compounds, 0.8% hits. protection from apoptosis, % (concentration not given with the values). INS-1E cytokine-induced death, ATP luminescence, 48 h; percent of positive-control rescue, neutral wells zero;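 active = all replicates at 75% or more, or half of them and the mean; inconclusive = half reach 75% but not the mean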;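 note: 0% = cytokine-treated negative control wells and 100% = positive control rescue; higher means more ATP so stronger rescue from cytokine killing; wells of about 40 µL received 100 nL stock; the first replicate is given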
# A1 inh: inhibitors of the anti-apoptotic protein A1, read as caspase activation. MEF A1-2A-BIM cells, Caspase-Glo 3/7 luminescence, 3 h; percent of clofoctol response, vehicle zero. caspase activation, % (no concentration beside the values). 330,000 compounds, 0.066% hits. AID 2462;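 active = over half of replicate activation scores above 10%, or exactly half above 10 with the replicate mean above 10; inconclusive = replicate mean below 10 yet half the replicates above 10; inactive = over half of replicates below 10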;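 note: wells of about 30 µL received 50 nL stock; many hits fall short of the cut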
# rRNA inh HTS OD600: also measured in rRNA inh HTS; calls as there; OD600 change, %; measured here: OD600 growth;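 optical density of the mix in the first replicate; 0 = DMSO median and -100 = no signal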
# rRNA inh HTS RFP: also measured in rRNA inh HTS; calls as there; RFP signal change, %; measured here: RFP humanized mutant strains;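 first replicate; 0 = DMSO median and -100 = no signal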
# Active calls of the source: *; ? = inconclusive; nt = not tested or not shown; & = joins results of further samples.
SMILES,Calb FLC,T cruzi repl,LANA-H2A inh,Beta2AR agonist,rRNA inh HTS,rRNA inh HTS OD600,rRNA inh HTS RFP,ALR H2O2 inh,Beta cell apopt,A1 inh
CC(=O)N(CCCc1ccc(C(C)(C)C)cc1)CCCN(C)C,-8,73*,-1.0,1,nt,nt,nt,3,-9,0.3
Brc1ccccc1-c1nnc(-c2cccnc2)o1,-4,-6,5.4,-1,nt,nt,nt,-2,-2,-3.1
CC(C)NC(=O)Nc1ccc2c(c1)CC(=O)N([C@@H](C)CO)C[C@H](C)[C@@H](CN(C)C(=O)NC1CCCCC1)O2,nt,nt,6.0,-7,5&0,11&8,-2.8&-3.6,nt,-8,0.3
Cn1cc(-c2ccccc2C(N)=O)c(=O)c2cc(Cl)ccc21,1,-11,2.8,-4,8,0,-1.3,-3,-2,0.0
C/C(=N\OCc1ccccc1C#N)c1cc2ccccc2o1,-1,-18,-1.4,4,6,10,4.5,16,-4,0.1
COc1ccc(/C(C)=N/NC(=O)c2ccc(CSc3nncn3C)cc2)cc1,-18,0,4.4,0,14,7,0.7,-11,4,0.4
CN1CCC(=O)N([C@H](CSc2ccccc2)Cc2ccccc2)CC1,-24,-16,-2.3,-8,3,7,-8.1,-9,-2,0.1
CN(C)c1nc(N)nc(Nc2ccccc2C#N)n1,3,6,-0.6,1,nt,nt,nt,3,-6,0.1
Cc1c(N=C2SCC(=O)N2/N=C/c2ccccc2Cl)c(=O)n(-c2ccccc2)n1C,0,14,5.4,1,nt,nt,nt,-10,-4,1.5
Cc1ccc(S(=O)(=O)N2CCCC(C(=O)NC3CCCC3)C2)cc1Cl (configuration not stated),-8,0,1.9,14,-1,-4,-1.7,-3,4,-0.7
COc1ccc(Cl)cc1NC(=S)N(Cc1cccnc1)Cc1ccco1,9,66*,0.8,-6,-24*,-8.6*,0.0*,-3,-6,1.8
COc1ccc(OC)c(-c2cc(C(=O)Nc3c(C)nn(Cc4ccc(Cl)cc4)c3C)no2)c1,15,?,3.7,9,nt,nt,nt,-10,17,0.3
Cn1c(CCNC(=O)c2ccco2)nc2cc(NS(=O)(=O)c3ccc(Cl)cc3)ccc21,-4,3,4.8,-8,nt,nt,nt,-19,4,-1.0
COc1ccc(C)cc1-n1cnnn1,-4,2,4.9,-2,3,-11,-4.2,-3,-4,-0.3
Cc1cc(C)cc(NC(=O)NCC(O)COc2ccc([N+](=O)[O-])cc2)c1 (configuration not stated),-11,12,-3.3,-1,-5,10,-0.5,-12,-14,0.0
CCOC(=O)c1sc(N)c(C#N)c1COC(=O)CNC(=O)c1ccccc1,13,6,-6.6,-5,nt,nt,nt,nt,-2,-0.1
CCC1=C(OC(=O)N(CC)CC)N2C(=O)OC(=NCC3CC3)[C@]2(Cc2ccccc2)[C@H]2C1=CC[C@H]1C(=O)N(c3ccccc3)C(=O)[C@H]12,-21,28,-0.1,11,11,11,-4.1,-5,0,-0.7
COC(=O)Cc1ccc(NC(=S)NCc2ccccc2)cc1,-17,-2,-3.7,7,-2,-7,-3.1,-2,-1,0.8
CCN(CC)S(=O)(=O)c1ccc(N(C)C)c(NC(=O)CSCc2c(C)noc2C)c1,11,3,-5.2,-2,-16,-17,-2.0,-7,-1,-0.4
COc1nc(-c2ccccc2)ccc1-c1noc(-c2ccccc2)n1,1,-4,-3.3,-3,nt,nt,nt,-8,-3,0.3
Cc1ccccc1Cn1ccc(NC(=O)c2cnn3c(C(F)(F)F)cc(-c4ccco4)nc23)n1,3,?,3.6,8,nt,nt,nt,nt,16,-0.8
COc1ccc(C2(C)ON(c3ccccc3C(F)(F)F)C2=O)cc1 (configuration not stated),nt,nt,2.0,6,15,12,-1.4,1,2,0.3
C(=C\c1ccncc1)/c1ccncc1,6,45,3.1,0,0,2,7.4,-3,1,0.9
C=CCn1c(SCC(=O)Nc2ccc3c(c2)OCO3)nc2ccccc2c1=O,-1,18,-2.5,0,nt,nt,nt,-4,1,-0.5
Cc1cc(C)c2sc(NC(=O)c3ccc(N4C(=O)CCC4=O)cc3)nc2c1,-5,-7,2.0,-2,8,-1,-1.3,-1,-3,-0.2
O=C(NCC1CC1)c1cccc2c1C(=O)c1ccc(-c3ccc(OC(F)(F)F)cc3)cc1S2(=O)=O,nt,nt,5.5,0,1,4,-4.8,44,5,0.9
O=C(Cn1cc(C(F)(F)F)cc(Cl)c1=O)NCc1ccccc1,0,0,-5.5,4,7,3,-1.0,-13,-2,-1.3
CC(=O)NC(c1ccc(Cl)cc1)c1c(O)ccc2ccc(O)cc12 (configuration not stated),-1,10,-1.8,12,-18,-17,-1.4,96*,-3,-0.1
Cc1nc(SCC(=O)NC(=O)NC2CCCCC2)nc(C)c1C,-7,7,-3.5,-23,-18,-19,1.5,1,-1,-0.5
CCOC(=O)N/N=C(/C)c1ccc([N+](=O)[O-])o1,19,57*,4.7,-7,-4,3,11,-45,-5,0.3
CC1CN(C(=S)Nc2ccc(Br)cc2Cl)CC(C)O1 (configuration not stated),0,-12,4.1,-2,1,1,-2.8,3,-9,0.1
Cn1c(SCC(=O)OC2CCCCC2)nnc1-c1ccco1,-3,-1,1.3,2,nt,nt,nt,-3,-2,0.7
CC(=O)c1cccc(NC(=O)c2cc(-c3cccs3)on2)c1,-1,5,2.5,-9,7,19,-2.0,nt,-2,-0.3
CC(=O)N1[C@H](Cc2ccccc2)C=C[C@]1(C)C(=O)NCCN1CCOCC1,-6,-14,2.2,9,17&8,13&14,2.6&0.9,nt,-2,0.8
CCOC(=O)C1=C(C)N(CC(C)C)C(=O)/C1=C\c1ccc(OCC(=O)Nc2ccccc2)cc1,-12,9,1.5,-5,nt,nt,nt,-3,-1,-0.1
CC1CCN(c2nc3c(c(=O)[nH]c(=O)n3C)n2CCCc2ccccc2)CC1,-6,29,-2.7,-25,15,1,4.5,3,-3,-0.1
CCOc1ccc(NC(=O)CN2CCN(CC(=O)Nc3cc(OC)cc(OC)c3)CC2)cc1,nt,nt,-0.9,12,nt,nt,nt,-9,-5,-0.7
CCOc1ccccc1NC(=O)C1CCCN(C(=O)NCc2ccccc2)C1 (configuration not stated),11,2,5.4,10,nt,nt,nt,-6,3,0.1
CCN(CC)S(=O)(=O)c1ccc(OC)c(NS(=O)(=O)Cc2ccccc2)c1,1,0,0.8,4,0,-4,-2.9,nt,1,-1.0
Cc1sc2ncnc(N)c2c1C,2,-1,3.3,-7,9,-1,-7.9,1,-6,0.1
CN1CCCCc2c1nc1c(c2N)CCCC1,-2,-14,4.6,-12,nt,nt,nt,nt,nt,0.3
COc1ccc(C(=O)Nc2cc(C)on2)cc1OC,-2,-5,-0.3,-2,1,5,-3.0,-5,-8,0.1
CN(CCOc1ccccc1)C(=O)c1cc(COc2c(F)cccc2F)on1,-21,-2,-5.1,4,-20,-44,-5.9,-3,2,-0.5
c1ccc2c(c1)CCCC2NC1=NCCC1 (configuration not stated),-4,-8,1.3,0,nt,nt,nt,-6,-1,0.1
CN(CC(O)COc1ccc2ccccc2c1)C1CCCCC1 (configuration not stated),0,19,9.1,-2,-10,-6,-1.2,-20,7,-0.7
Cc1cccc(N(CC(=O)NCCSCc2ccccc2)S(C)(=O)=O)c1C,-4,-16,-7.7,-6,1,-3,5.2,-3,-6,0.2
O=c1c(Cc2ccc(Cl)cc2)c(O)ccn1Cc1ccccc1,8,7,1.0,0,nt,nt,nt,-10,5,1.9
CC(=O)OCC(=O)[C@@]1(O)CC[C@H]2[C@@H]3C[C@H](C)C4=CC(=O)C=C[C@]4(C)[C@H]3[C@@H](O)C[C@@]21C,nt,-21,4.6,2,-2,3,3.3,-4,-3,0.4
O=C(Nc1ccc(CN2CCOCC2)cc1)c1ccc(Cl)cc1Cl,-3,-11,1.1,-1,1,8,0.8,-6,nt,0.8
CCc1nc(Nc2ccc(N3CCN(C(C)=O)CC3)cc2)c2oc3ccccc3c2n1,6,0,-1.1,24,nt,nt,nt,96*,7,0.5

# Continuation:
SMILES,Calb FLC,T cruzi repl,LANA-H2A inh,Beta2AR agonist,rRNA inh HTS,rRNA inh HTS OD600,rRNA inh HTS RFP,ALR H2O2 inh,Beta cell apopt,A1 inh
Cc1noc(COc2ccccc2OCC(O)CNC(C)(C)C)n1 (configuration not stated),1,-2,5.4,-4,nt,nt,nt,-8,-7,0.9
CN(C)CCCCOc1cccc(Br)c1,-3,48,-3.3,1,11,5,-1.8,-7,-11,-0.2
Cc1ccc(NC(=O)CSc2nnc(-c3ccncc3)s2)cc1,-5,-11,2.5,-3,2,10,0.7,-1,0,0.5
CC(=O)c1c(C)[nH]c(C(=O)OC(C)C(=O)Nc2ccc(C)c(S(=O)(=O)N3CCOCC3)c2)c1C (configuration not stated),nt,nt,1.2,-2,-24,-35,-0.5,-3,-17,-0.6
CC(=O)Oc1ccc(N2C(=O)C3C4C=CC(O4)C3C2=O)cc1 (configuration not stated),7,14,2.3,0,nt,nt,nt,-12,-12,0.3
CS(=O)(=O)N(CC(=O)NC1CCCCCC1)Cc1ccc(Cl)cc1,8,1,-1.2,-6,nt,nt,nt,-15,2,1.1
COCCn1c(N)c(C(=O)NCc2cccs2)c2nc3ccccc3nc21,12,30,-0.1,-17,nt,nt,nt,18,-7,3.0
O=C(NC1CCN(Cc2nnnn2CCc2ccccc2)CC1)c1ccccc1F,-8,-3,-6.6,-5,nt,nt,nt,-21,0,1.3
CN(Cc1nc2ccccc2n1C)C(=O)c1cccs1,-9,-5,0.7,-1,nt,nt,nt,-9,2,-0.4
CC12CN3CC(C)(CN(C1)C3c1ccc(Br)cc1)C2 (configuration not stated),0,-1,-0.1,8,nt,nt,nt,-6,-2,0.4
c1ccc(COn2c(-c3ccccc3)nc3c2CCc2nonc2-3)cc1,-2,17,-1.6,-15,nt,nt,nt,-11,12,0.4
CCNc1nc(NCC)nc(OCCNS(=O)(=O)c2ccccc2)n1,-7,1,3.6,7,2,-4,-3.7,-10,-3,0.4
CN1CCN(S(=O)(=O)c2cccc(C(=O)Oc3ccccc3Cl)c2)CC1,5,-12,0.1,7,1,-1,-1.2,-2,-7,0.1
CCCn1ncc(CN2CCC(Oc3ccc(C(=O)N4CCCC4)cc3)CC2)c1C,-4,15,-2.2,-3,-2,-12,5.0,-9,-5,0.5
Cc1nc(-c2ccc(Cl)cc2)sc1C1(C)CC(c2c(Cl)cccc2Cl)=NO1 (configuration not stated),4,-4,-5.4,11,15,9,2.0,nt,4,0.0
CC(C)CCNC(=O)c1cccc(S(=O)(=O)N2CCc3ccccc32)c1,19,1,4.7,2,nt,nt,nt,-3,-1,1.0
COc1ccc(C(=O)NCCN2CCOCC2)c(OC)c1OC,70*,3,-0.6,1,2,15,-2.0,-4,-5,0.6

# Source: PubChem (several laboratories)

# This is a subset; rates above refer to the full screens.
